D2 ag: Beta-Arrestin HTS for Positive Allosteric Modulators of the Human D2 Dopamine Receptor: Agonists. D(2) dopamine receptor (Homo sapiens), P14416. DiscoveRx PathHunter D2 beta-arrestin, luminescence, 90 min; 100% = 57 uM dopamine signal. activation, % (no concentration beside the values). 0.084% of 360,000 active. AID 624465, 2012; in the data active = activation above about 40%; inconclusive = about 15% to 40%; inactive = below about 15%; also: compound concentration not given in the record; the text of the record calls up to 30% inactive
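Agonist mode: compounds alone added to overnight-plated D2 PathHunter cells for 90 min at 37 C, with 57 uM final dopamine (EC100) defining full response. Beta-arrestin recruitment detected by chemiluminescent reagent, read after 1 h at ambient temperature.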
CtBP-E1A inh: qHTS Assay for Inhibitors of the CtBP/E1A Interaction | CtBP / adenovirus E1A interaction (AlphaScreen) | AlphaScreen GST-E1A/His-CtBP binding, 1536-well; hits give low values; control for the full effect not named in the record | activity change, % (test concentration not listed) | 0.49% of 340,000 active | AID 651724, 2012; in the data active means activity change below about -65%; inconclusive means about -30% to -65%; inactive means above about -30%; also: % is scaled to controls: 0 for no effect and ±100 for the full control effect; compound concentration not given in the record
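Steps: dispense buffer (Tris pH 8.0, NaCl 300 mM, TCEP 1 mM, BSA, Tween 20); add 5X protein mix (GST-E1A, His-CtBP, 125 nM each); pin 23 nL compound; 2 h at 37 °C, dark; add 5X beads (50 ug/mL); 1 h; read.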
TRPV1 potentiator: HTS Assay for Compounds that Act as Potentiators of the Vanilloid Receptor 1. Transient receptor potential cation channel subfamily V member 1 (Homo sapiens), Q8NER1. TRPV1-expressing cells, Fluo-8 calcium influx, capsaicin EC20 potentiation; host cell line not named in the record; control for the full effect not named in the record. potentiation, % at 8.33 µM. 0.02% of 320,000 active. AID 540277, 2011; active means potentiation above 80%; inconclusive means 30% to 80%; inactive means below 30%; also: 0% is about no effect
Target sequence (Q8NER1 whole entry, looked up): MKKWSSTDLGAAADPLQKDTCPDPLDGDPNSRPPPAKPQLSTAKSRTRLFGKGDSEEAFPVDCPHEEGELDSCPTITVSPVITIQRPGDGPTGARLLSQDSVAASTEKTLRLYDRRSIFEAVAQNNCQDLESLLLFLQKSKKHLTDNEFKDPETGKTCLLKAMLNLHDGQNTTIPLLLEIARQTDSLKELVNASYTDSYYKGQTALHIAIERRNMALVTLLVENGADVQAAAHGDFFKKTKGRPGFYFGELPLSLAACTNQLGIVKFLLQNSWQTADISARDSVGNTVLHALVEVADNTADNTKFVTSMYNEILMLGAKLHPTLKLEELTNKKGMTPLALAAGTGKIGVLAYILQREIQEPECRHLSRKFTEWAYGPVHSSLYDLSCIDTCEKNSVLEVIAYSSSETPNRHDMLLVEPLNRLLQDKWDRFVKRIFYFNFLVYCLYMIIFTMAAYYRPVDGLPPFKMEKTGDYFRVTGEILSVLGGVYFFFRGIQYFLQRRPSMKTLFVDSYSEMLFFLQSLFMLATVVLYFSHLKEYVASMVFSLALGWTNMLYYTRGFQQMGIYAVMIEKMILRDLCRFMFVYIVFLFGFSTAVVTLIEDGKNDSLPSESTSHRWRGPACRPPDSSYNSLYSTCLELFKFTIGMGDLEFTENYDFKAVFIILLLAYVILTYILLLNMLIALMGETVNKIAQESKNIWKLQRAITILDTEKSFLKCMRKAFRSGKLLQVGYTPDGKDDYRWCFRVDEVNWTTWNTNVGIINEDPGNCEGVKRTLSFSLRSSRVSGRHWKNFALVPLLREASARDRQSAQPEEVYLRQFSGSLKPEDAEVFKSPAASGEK
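TRPV1-expressing cells were cultured overnight at 35.5C and loaded with Fluo-8 calcium dye for 40 to 90 min at room temperature. After a 10 s baseline, compound was added and calcium influx was read kinetically for 3 min (ex 480/em 520 nm).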
Sfp inh: qHTS Assay for Inhibitors of Bacillus subtilis Sfp phosphopantetheinyl transferase (PPTase) | 4'-phosphopantetheinyl transferase ffp (Bacillus subtilis), Q9F4F7 | Biochemical Sfp PPTase activity, qHTS | Potency, µM, for inactives: max response, negative = inhibition, actives largely listed as inhibitors | 3.5% of 310,000 active; active = well fitted inhibition curve with a large enough effect; inconclusive = small, poorly fitted or top-dose-only effect, or another doubt; inactive = no such curve, though single readings can be large or run the other way;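 also: the enzyme is Sfp with the accession as filed and its product quenches rhodamine fluorescence; potency is read from the fitted curve at half-maximal effect; 0% = enzyme reaction without inhibitor and -100% = no enzyme wells; top concentration of the series not given in the record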
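Compounds were incubated with enzyme (final 15 nM) for 15 min at room temperature before substrate addition started the reaction. Fluorescence at 525 nm excitation, 598 nm emission was recorded immediately and after 30 minutes.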
PINK1 expr mod: A Quantitative High throughput Screen to Identify Chemical Modulators of PINK1 Expression; PINK1 immunofluorescence, high-content cytometry, 24 h; Potency, µM (titrated, usually from 76.6 µM), for the others: at the top dose activation (PINK1 increase), hits mostly activators; 0.2% of 410,000 active; AID 624263, 2012; active = well fitted activation curve with a large enough effect; inconclusive = small, poorly fitted or top-dose-only effect; inactive = flat fitted curve, though single readings scatter; cell line not stated here;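 also: potency is read from the fitted curve at half-maximal effect; % of control where 0% means no effect; nearly all actives have a fitted effect of over 65% in size; a mitochondrial uncoupler was the plate control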
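Compound titrations (5 concentrations, 24 h) on a stable cell line; DMSO and CCCP controls. Endpoint: fixed-cell PINK1 immunofluorescence with mitochondrial, cell and nuclear markers, scanned by microplate cytometer.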
Six1-Eya2 blk: qHTS Assay for Inhibitors of the Six1/Eya2 Interaction. AID 651725, 2012. AlphaScreen GST-Six1/His-Eya2 binding, biochemical; hits give low values; control for the full effect not named in the record. activity change, % (test concentration not listed). 0.56% of 360,000 active; in the data active = activity change below about -65%; inconclusive = about -30% to -65%; inactive = above about -30%; also: % is scaled to controls: 0 for no effect and ±100 for the full control effect; compound concentration not given in the record
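AlphaScreen luminescence read after one hour at 37 °C in darkness. Pin-transferred compounds met GST-Six1 and His-Eya2 protein (5X stock 250 nM/500 nM) plus glutathione donor and Ni-chelate acceptor beads (5X, 50 ug/mL).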
D2 PAM: Beta-Arrestin HTS for Positive Allosteric Modulators of the Human D2 Dopamine Receptor: Potentiators. potentiation, % (test concentration not listed). 0.23% of 360,000 active. DiscoveRx D2 beta-arrestin cells, luminescence, 90 min; 100% = 57 uM dopamine signal. D(2) dopamine receptor (Homo sapiens), P14416; active = potentiation of 50% or more; inconclusive = 30% to 50%; inactive = 30% or less;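 also: compound concentration not given in the record; tested on top of an EC20 dose of dopamine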
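PathHunter D2 cells, attached overnight at 37 deg C, received compound in DMSO plus dopamine at EC20 (50 nM final) for 90 min at 37 deg C. Beta-arrestin recruitment was read as luminescence after 1 h with detection reagent at ambient temperature.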
The depositor's hits bear a star; ? = inconclusive; · = not tested or not shown; [ ] = dose if it differs, or a comment.

SMILES | D2 ag | CtBP-E1A inh | TRPV1 potentiator | Sfp inh | PINK1 expr mod | Six1-Eya2 blk | D2 PAM
Cc1nc(C(=O)NCCC(C)C)sc1C1(C)CC(c2cccc([N+](=O)[O-])c2)=NO1 (stereo unspecified) | -0.5 | -28 | -15 | 10% | -0.5% | -14 | -3
COc1ccc(/C=N\NC(=O)c2ccccc2Br)cc1COc1ccc(F)cc1 | -2.3 | 12 | 2 | -7% | 12% | -3 | -2
Cc1cc(C(=O)NNC(=O)c2cccc([N+](=O)[O-])c2)n[nH]1 | 1.2 | 10 | -4 | · | -0.3% | 1 | -3
CCOC(=O)N1CCC(NC(=O)c2ccc(CS(=O)(=O)c3ccccc3C)o2)CC1 | 11 | -18 | -22 | -22% | -0.7% | 6 | 1
CCOC(=O)c1cnc(-c2ccccc2)nc1N1CCOCC1 | -2.9 | 15 | -17 | 16% | 0.1% | 3 | 3
O=C(CCc1ccccc1)Nc1cc(C(F)(F)F)ccc1Cl | -0.5 | 35 | 0 | 6% | 5.6%[38.3 µM] | 19 | -5
O=C(CC1SC(=NCc2ccccc2)NC1=O)Nc1ccccc1 (stereo unspecified) | -0.6 | -20 | 7 | -19% | -1.1% | -2 | -7
CN(C)S(=O)(=O)n1ccnc1 | -4.6 | 11 | 18 | 25% | 19%[38.3 µM] | 6 | -2
CC(=O)c1ccc(OCC(O)CN2CCN(c3ccc(F)cc3)CC2)cc1 (stereo unspecified) | 8.8 | 1 | 8 | 12% | -0.7% | 7 | -16
COc1ccc(CNC(=O)C2CCCC2)cc1 | 3.5 | 7 | · | · | -0.8% | -4 | 0
O=C(O)c1ccc(/C=N/Nc2ccc(S(=O)(=O)N3CCCC3)cc2[N+](=O)[O-])cc1 | -0.7 | -7 | 29 | 5% | -2.2% | 0 | 2
CC(C)Cc1nc(S(=O)(=O)c2ccc(Cl)cc2)c(N2CCOCC2)o1 | -0.5 | 0 | -2 | 40µM* | -0.9% | 12 | -5
O=C(Nc1ccc(C(=O)O)cc1)/C(=C\c1ccco1)NC(=O)c1ccccc1 | -2.5 | 4 | 3 | 20µM* | 1.0% | 0 | -3
CCc1cc(=O)oc2cc(OCC(=O)NCCN3CCOCC3)c(Cl)cc12 | -1.7 | -19 | 13 | 10% | -0.4% | -9 | -11
COc1ccc(C2N(c3ccccn3)C(=O)C3CCCN32)c(OC)c1 (stereo unspecified) | -2.4 | 6 | 14 | 19% | -1.1% | 14 | -4
Cc1sc2nc(CSc3ncn[nH]3)[nH]c(=O)c2c1C | 2.8 | 0 | 0 | 7% | 0.6% | -9 | -12
CC(C)OCCCNc1ncnc2c1[nH]c1ccc(F)cc12 | -0.5 | -18 | -4 | -9% | -0.2% | -17 | -9
CCOC(=O)Cn1nnnc1C(CC)N(Cc1cc2ccc(C)cc2[nH]c1=O)C1CCCC1 (stereo unspecified) | 2.4 | 0 | 1 | 3% | 0.9% | -1 | 28
COC(=O)C(Cc1cnc(Cl)s1)(C(=O)OC)c1ccc(C(F)(F)F)cc1[N+](=O)[O-] | 4.5 | -15 | -13 | 8% | 1.3% | -20 | -3
Cc1cccc(NC(=S)N(C)C2CCCCC2)c1 | -2.2 | 2 | -4 | 6% | 1.9% | 3 | -4

Part of the list above, with values under each structure:
The line under a structure holds: D2 ag	CtBP-E1A inh	TRPV1 potentiator	Sfp inh	PINK1 expr mod	Six1-Eya2 blk	D2 PAM
Cc1sc2nc(CSc3ncn[nH]3)[nH]c(=O)c2c1C
→ 2.8	0	0	7%	0.6%	-9	-12
CC(C)OCCCNc1ncnc2c1[nH]c1ccc(F)cc12
→ -0.5	-18	-4	-9%	-0.2%	-17	-9
CCOC(=O)Cn1nnnc1C(CC)N(Cc1cc2ccc(C)cc2[nH]c1=O)C1CCCC1 (stereo unspecified)
→ 2.4	0	1	3%	0.9%	-1	28
COC(=O)C(Cc1cnc(Cl)s1)(C(=O)OC)c1ccc(C(F)(F)F)cc1[N+](=O)[O-]
→ 4.5	-15	-13	8%	1.3%	-20	-3
Cc1cccc(NC(=S)N(C)C2CCCCC2)c1
→ -2.2	2	-4	6%	1.9%	3	-4

Carrying on:
SMILES | D2 ag | CtBP-E1A inh | TRPV1 potentiator | Sfp inh | PINK1 expr mod | Six1-Eya2 blk | D2 PAM
Cc1cccc(COCC(Cc2ccccc2)N2CCN(C(=O)c3cc(Cl)cc(Cl)c3)CCC2=O)c1 (stereo unspecified) | -0.3 | -6 | -5 | -1% | 7.2% | 1 | -5
CC1CCN(C(=O)COC(=O)c2ccccc2NC(=O)c2ccco2)CC1 | 0.1 | 0 | -12 | 6% | -0.1% | 11 | 1
Cc1cc(C)c(C(N)=O)c(Nc2ccc(F)cc2)n1 | 4.1 | -4 | 4 | 16% | 0.1% | 9 | 6
COc1cc(C(=O)N[C@H](C(=O)OCC(=O)NC2CCCCCC2)C(C)C)cc(OC)c1OC | 0.7 | 2 | · | · | 0.3% | 6 | 5
CC(=O)c1c(C)[nH]c(C(=O)NCc2ccc(Cl)cc2)c1C | -1.4 | -7 | · | · | -0.6% | 2 | -39
CN(CCCC(=O)N1CCCC(C(N)=O)C1)S(=O)(=O)c1ccc(F)cc1 (stereo unspecified) | -1.2 | 6 | -14 | 15% | -1.6% | -4 | -3
CCOc1ccccc1NC(=O)CCN1CCN(S(=O)(=O)c2ccc(OC)cc2)CC1 | -0.9 | 14 | -2 | 18% | 8.0% | -3 | 5
CCc1ccc(NC(=O)C(=O)NCC2CCCN2S(=O)(=O)c2cccs2)cc1 (stereo unspecified) | -1.2 | 4 | -7 | · | -0.5% | -8 | 1
COc1ccccc1N(CC(=O)NCc1ccc(F)cc1)C(=O)CCC(=O)Nc1ccccn1 | -4.4 | 1 | 1 | 15% | 2.4% | 7 | -1
CC(C)CCNC(=O)C1CCCN(S(=O)(=O)c2ccc3c(c2)CC(C)N3C(=O)C2CC2)C1 (stereo unspecified) | 0.1 | 1 | -10 | 11% | -1.8% | 0 | -7
CC(C)(C)NC(=O)c1nn2c(C(F)(F)F)cc(-c3ccccc3)nc2c1Br | -3.1 | · | ? | -2% | 4.3% | -5 | -14
CCOc1cccc(C(=O)N/N=C/c2ccoc2)c1 | -1.8 | 1 | -1 | 2% | 4.3% | 1 | -18
CCOc1cccc2sc(N(CCN(C)C)C(=O)CCS(=O)(=O)c3ccccc3)nc12 | 2.9 | 4 | · | · | 4.3% | 3 | -31
O=C(CSC1=Nc2ccccc2C2CC=NN12)Nc1ccc2c(c1)OCO2 (stereo unspecified) | -8.5 | -21 | 4 | -5% | 1.4% | -13 | -25
Cc1ccccc1-c1cc2nc(NCc3ccc4occc4c3)n(C)c(=O)c2s1 | -1.4 | -2 | · | · | 7.7% | -6 | 6
COc1cc(-c2cc(-c3nnco3)c3ccccc3n2)cc(OC)c1OC | 0.0 | -12 | -21 | 15% | 4.4% | -21 | 4
COc1ccccc1NC(=O)C(C)OC(=O)C1COc2ccccc2O1 (stereo unspecified) | 1.3 | 6 | -4 | · | 0.7% | -1 | -2
CC(C)Nc1nc(NC(C)(C)C)nc(Oc2ccc(=O)n(C)n2)n1 | -5.3 | 7 | 2 | 13% | 3.0% | 25 | -2
CC(C)CC(NC(=O)C(NC(=O)C(Cc1ccc(OCc2ccccc2)cc1)NC(=O)OC(C)(C)C)C(C)C)C(N)=O (stereo unspecified) | -0.6 | 10 | 0 | 40%[activator] | 10% | 1 | 3
COc1ccc(C(c2sc3nc(C)nn3c2O)N2CC(C)OC(C)C2)cc1OC (stereo unspecified) | -5.4 | 4 | 20 | 10% | -0.5% | 2 | -4

Quoted from the listing:
D2 PAM, COc1ccccc1NC(=O)C(C)OC(=O)C1COc2ccccc2O1 (stereo unspecified) is entered as -2
TRPV1 potentiator, CCc1ccc(NC(=O)C(=O)NCC2CCCN2S(=O)(=O)c2cccs2)cc1 (stereo unspecified) is entered as -7

Carrying on.
SMILES | D2 ag | CtBP-E1A inh | TRPV1 potentiator | Sfp inh | PINK1 expr mod | Six1-Eya2 blk | D2 PAM
CC(C)=CC(=O)OCC(=O)Nc1ncc(Cl)c(C)c1Cl | -2.4 | -1 | -6 | -8% | 0.3%[38.3 µM] | -3 | 3
Cc1cc(C(=O)Cn2cnc3cc(F)ccc3c2=O)c(C)n1C1CC1 | -10 | 4 | · | · | ? | -7 | -2
O=C(O)/C=C/C(=O)NCc1cn(-c2ccccc2)nc1-c1cccc(Br)c1 | -0.4 | -15 | 1 | 2% | 5.4% | 6 | 3
CCCOc1ccc(-c2nc[nH]c2[N+](=O)[O-])cc1 | 0.4 | 10 | 1 | -5% | 1.5% | -3 | -6
Cc1csc(NC(=O)Cc2ccc(Br)cc2)n1 | 0.7 | -4 | ? | 18% | -0.5% | -7 | -1
Cc1ccn(CC(=O)NC2CCCN(Cc3ccccc3F)C2)n1 (stereo unspecified) | -1.4 | 1 | · | · | 0.0% | -3 | -6
O=C(Nc1ccc2c(c1)C(=O)NC2=O)c1cc(Cl)ccc1Cl | -4.7 | 0 | -22 | 7% | 10% | -4 | -1
CCC(=O)N1c2ccc(S(=O)(=O)N(CCO)Cc3ccccc3)cc2CC1C (stereo unspecified) | -0.9 | 6 | -9 | 11% | -0.5% | 0 | -9
O=C(CSc1nc2ccccc2c(=O)n1NC(=O)c1ccccc1)c1ccccc1 | -2.1 | ? | -3 | 6% | -1.5% | ? | -4
COc1cccc(NC(=O)C(=O)N/N=C/c2cc(C)n(-c3ccc(Cl)c(Cl)c3)c2C)c1 | 1.0 | -17 | -3 | 22% | 6.7%[38.3 µM] | -22 | 1
CC1CCN(S(=O)(=O)c2ccc(NC(=S)NC(=O)c3ccc(Cl)cc3)cc2)CC1 | -2.1 | 8 | 1 | -19% | 5.0% | 0 | -6
COc1ccc(NC(=O)CN(C)C(=O)c2ccc(COc3ccccc3)cc2)cc1 | -5.0 | -28 | -13 | · | -0.8% | -6 | -7

Outcome played no part in choosing rows; about 3.7% have a hit in one of these screens.
